LASV entry inh: blocks Lassa virus binding to or entry into cells; Lassa virus pseudotype entry inhibition, cell reporter; control for the full effect not named in the record; actives 1.2% (n = 300,000); AID 540256; Potency, µM (series often up to 37.9 µM), without a hit: at the top dose activity change, negative = inhibition, hits mostly inhibitors; active means well fitted inhibition curve with a large enough effect; inconclusive means small, poorly fitted or top-dose-only effect, or effect the other way; inactive means flat fitted curve, though single readings scatter; tested in HEK293 cells; also: % is scaled to controls: 0 for no effect and ±100 for the full control effect; nearly all actives have a fitted effect of over 50% in size; luciferase read-out
RE007 growth inh: less growth of the S. pombe RE007 Vpr strain. AID 651644. Potency, µM (highest dose often 92.2 µM), without a hit: at the top dose activity change, negative = less growth. actives 0.21% (n = 360,000). S. pombe RE007 Vpr strain, BacTiter-Glo ATP luminescence, 24 h; control for the full effect not named in the record; active = well fitted falling curve with a large enough effect; inconclusive = small, poorly fitted or top-dose-only effect; inactive = no such curve, though single readings can be large or run the other way;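 also: % is scaled to controls: 0 for no effect and ±100 for the full control effect; nearly all actives have a fitted effect of over 50% in size; the assay follows cell death caused by Vpr and the record does not say whether a fall means rescue or toxicity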
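Fission yeast strain RE007, carrying one chromosomally integrated HIV-1 vpr copy, was seeded at OD 0.01 in PMG+AL medium with 23 nL pinned compound. After 24 h at 30 °C and 99% humidity, viability was read by BacTiter-Glo luminescence.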
Cruzain inh noDet: blocks cruzain activity in detergent-free assay. purified cruzain, Z-FR-AMC fluorescence, no detergent. Potency, µM, for the others: max response, negative = inhibition, actives largely listed as inhibitors. actives 2.3% (n = 200,000). AID 1476;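 also: plate controls were enzyme without inhibitor for no effect and buffer without enzyme for full effect; nearly all actives have a fitted effect of over 40% in size; top concentration of the series not given in the record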
Target sequence (P25779 123-467 limits assumed): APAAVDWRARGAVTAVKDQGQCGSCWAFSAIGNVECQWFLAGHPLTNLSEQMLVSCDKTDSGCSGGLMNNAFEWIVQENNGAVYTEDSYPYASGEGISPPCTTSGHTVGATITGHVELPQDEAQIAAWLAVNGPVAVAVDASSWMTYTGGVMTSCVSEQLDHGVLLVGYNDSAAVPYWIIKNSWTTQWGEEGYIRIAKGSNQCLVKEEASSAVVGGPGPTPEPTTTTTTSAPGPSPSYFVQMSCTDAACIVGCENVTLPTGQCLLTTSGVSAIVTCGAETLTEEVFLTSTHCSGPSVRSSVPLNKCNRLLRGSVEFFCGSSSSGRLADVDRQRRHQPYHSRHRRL
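Purified cruzain at 1.5 nM, pre-incubated 15 min with compound at room temperature in 100 mM sodium acetate pH 5.5, 5 mM DTT, 0.00005% Triton X-100. Reaction started with 2 uM Z-FR-AMC; AMC fluorescence increase over 60 s gives rate.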
NS1 inh: inhibitors of influenza NS1 protein function; S. cerevisiae slowed by influenza A NS1, growth recovery by OD600; actives 0.4% (n = 270,000); Potency, µM (doses to about 46.1 µM), for inactives: top-dose activity, positive = more growth; active means well fitted rising curve with a large enough effect; inconclusive means small, poorly fitted or top-dose-only effect; inactive means no such curve, though single readings can be large or run the other way; also: nearly all actives have a fitted effect of over 50% in size
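A cell-based growth assay was used: compounds that relieve NS1-induced slow growth of budding yeast raise OD600. Assay medium was yeast nitrogen base with ammonium sulphate and -URA supplement, pH 6.0, with 2% galactose.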
MARV entry inh: blocks Marburg virus binding to or entry into cells. Potency, µM (series often up to 37.8 µM), for inactives: top-dose activity change, negative = inhibition, usual class: inhibitors. AID 540276. Marburg virus pseudotyped entry inhibition, cell reporter; control for the full effect not named in the record; about a third of the inactives were read at about 46 µM. actives 1.8% (n = 300,000); active = well fitted inhibition curve with a large enough effect; inconclusive = small, poorly fitted or top-dose-only effect, or effect the other way; inactive = flat fitted curve, though single readings scatter; tested in HEK293 cells; about a fifth of its hits are not listed in these tables; also: % is scaled to controls: 0 for no effect and ±100 for the full control effect; luciferase read-out
Cruzain inh Det: blocks cruzain activity in presence of Triton detergent; P25779; purified cruzain, Z-FR-AMC fluorescence, 0.01% Triton; Potency, µM, for inactives: max response, negative = inhibition, usual class: inhibitors; actives 0.43% (n = 200,000);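 also: plate controls were neutral wells for no effect and buffer without enzyme for full effect; nearly all actives have a fitted effect of over 40% in size; top concentration of the series not given in the record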
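Cysteine protease activity tested under reducing, mildly acidic conditions (100 mM sodium acetate pH 5.5, 5 mM DTT) plus 0.01% Triton X-100. Cruzain 1.5 nM; substrate Z-FR-AMC 2 uM; 15 min compound preincubation at room temperature.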
StopGo reporter: lowers the luciferase signal of an FMDV 2A StopGo reporter; Potency, µM (doses to about 57.9 µM), without a hit: at the top dose signal change, negative = less light; actives 1.2% (n = 410,000); AID 1159524; human cells with a luciferase reporter of 2A StopGo recoding; control for the full effect not named in the record; active = well fitted falling curve with a large enough effect; inconclusive = small, poorly fitted or top-dose-only effect; inactive = no such curve, though single readings can be large or run the other way; tested in HEK293T cells; also: % is scaled to controls: 0 for no effect and ±100 for the full control effect; nearly all actives have a fitted effect of over 45% in size; luciferase light after 4 h
SARS PLpro yeast: SARS-CoV PLP inhibition in yeast; Potency, µM (top dose mostly 32.9 µM), for inactives: at the highest dose activity, positive = growth rescue; actives 0.19% (n = 330,000); S. cerevisiae expressing SARS-CoV PLpro, growth rescue; control for the full effect not named in the record; AID 485353; active means well fitted rising curve with a large enough effect; inconclusive means small, poorly fitted or top-dose-only effect; inactive means no such curve, though single readings can be large or run the other way; also: 0% is about no effect; nearly all actives have a fitted effect of over 55% in size; growth read by luminescence after 48 h
* hit, by the source's call; ? = inconclusive; / = no result given; & = joins results of further samples; [ ] = remark or other dose. Unless noted, calls follow the shape of the dose curve; as a rule, active = well fitted curve in the direction sought with a large enough effect; inconclusive = small, poorly fitted or top-dose-only effect, or another doubt; inactive = no such curve, though single readings can be large; an effect the other way counts as inactive or inconclusive. Potency is read from the fitted curve at half-maximal effect.

SMILES | LASV entry inh | RE007 growth inh | Cruzain inh noDet | NS1 inh | MARV entry inh | Cruzain inh Det | StopGo reporter | SARS PLpro yeast
CCOC(=O)c1sc2ccc(S(=O)(=O)N3CCCCC3)cc2c1N | -19% | 8% | 0% | -42% | ? | -7.2% | ? | -6%
CC(=O)Nc1ccc(NC(=O)Cc2sc(-c3cccnc3)nc2-c2ccc(C)cc2)cc1 | -26%[46.1 µM] | -7% | / | 5% | ? | / | 31%[activator] | 0%
CCN(CC(=O)Nc1ccc(Br)cc1F)CC(=O)NC1CCS(=O)(=O)C1 (stereo not given) | -15% | -15% | / | / | -10% | / | -16% | -4%
COc1ccc(S(=O)(=O)N2CCN(c3ccccc3)CC2)cc1-c1noc(C)n1 | ? | / | -10% | / | -11%[46.1 µM] | -0.3% | 5% | /
Cc1cc(C(=O)CCC(=O)Nc2ncccc2C)c(C)s1 | -1% | -10% | / | / | -12% | / | 10% | -2%
CCCCCC(=O)Nc1ccc(N2CCN(CC)CC2)c(Cl)c1 | -1% | -7% | 5% | -3% | 2% | 4.8% | ? | 10%
CC(C)Oc1ccc(CNC(=O)c2ccc3nc(Cc4ccccc4)oc3c2)cc1 | ? | / | -2% | / | / | -2.3% | -18% | /
COC(=O)c1cc2oc(C)cc2n1Cc1ccc(C)cc1 | -24%[46.1 µM] | / | -7% | / | / | -0.6% | 9% | /
O=C(COC(=O)c1ccc(O)cc1)NCC1CCCO1 (stereo not given) | 16% | 7% | / | / | 2%[46.1 µM] | / | 14% | -3%
CCN1CCN(S(=O)(=O)c2ccc(Cl)c(C(=O)Oc3ccc(CC(=O)OC)cc3)c2)CC1 | -3% | -6% | / | / | ? | / | -19% | /
O=C(Cc1ccccc1)NCC(=O)Nc1ccc(OC(F)(F)F)cc1 | ? | 2% | / | -3% | -8%[46.1 µM] | / | -5% | 6%
COc1ccccc1CNS(=O)(=O)CCNC(=O)c1ccccc1 | -9% | 34% | / | / | 3%[46.1 µM] | / | 7% | -2%
O=C(NCCc1ccccc1)C1CC(=O)N(C2CCCCC2)C1 (stereo not given) | / | 12% | / | 5% | / | / | -28% | 8%
CCn1nnc(-c2ccccc2NC(=O)c2cnccn2)n1 | 8% | -5% | / | / | -1% | / | -25% | /
O=C1/C(=C/c2ccc(O)cc2)COc2ccccc21 | 9% | ? | / | -19% | 14% | / | -6% | -6%
O=C(O)CCN1CCN(S(=O)(=O)c2ccc3ccccc3c2)CC1 | / | -3% | / | 10% | / | / | -18% | 5%
O=C(Cn1sc2ccccc2c1=O)NC12CC3CC(CC(C3)C1)C2 | ? | -24% | -1% | -137% | ? | -1.8% | 7% | -54%
O=C(c1cccc(-n2cnnn2)c1)N1CCOCC1 | 8% | -3% | 6% | -2% | 10% | -5.3% | -21% | /
CCn1c(/C=N/NC(=O)c2ccc(OC)cc2)nc2ccccc21 | ? | -1% | -23% | -5% | ? | -14% | -20% | 4%
CCOc1ccc2nc(N3CCCC(C(=O)NCCCN4CCCCC4)C3)sc2c1 (stereo not given) | / | 6% | / | -5% | / | / | 8% | ?
CCc1[nH]nc(C(=O)N/N=C/c2ccncc2)c1C | / | -13% | / | 7% | / | / | 57%[activator] | 4%
CCCNC(=O)N1CCN(C(=O)NCCC)CC1 | -12% | -3% | 6% | 4% | 14% | 3.0% | 9% | 0%
O=C(Cn1ncc2c3ccccc3n(Cc3ccccc3F)c2c1=O)NC1CCCCCC1 | -9%[46.1 µM] | / | -1% | / | -7%[46.1 µM] | -3.0% | -12% | /
COC(=O)CNC(c1ccccc1)c1cc(Br)ccc1NC(=O)c1ccc(Cl)cc1 (stereo not given) | ? | / | 3% | / | / | -0.1% | -9% | /
Cc1cccc(Nc2nnc(SCC(=O)NCC3CCCO3)s2)c1C (stereo not given) | 11% | 1% | / | / | -20% | / | ? | -4%
O=C(Nc1ccc(OC(F)(F)F)cc1)C1CCN(S(=O)(=O)c2ccc3[nH]c(=O)ccc3c2)CC1 | -1%[46.1 µM] | / | 1% | / | / | -2.0% | ? | /
CC12CCC3c4ccc(OP(=O)(N5CC5)N5CC5)cc4CCC3C1CCC2=O (stereo not given) | -9%[46.1 µM] | 1% | / | / | 18%[46.1 µM] | / | -10% | /
Cc1ccc(NS(=O)(=O)c2ccc(-c3cnc(C4CC4)o3)cc2)c(C)c1 | / | 3% | / | -40% | / | / | ? | -12%
Cc1ccc(S(=O)(=O)NCCSc2nnnn2-c2ccc(Cl)c(C(=O)O)c2)cc1 | 15%[46.1 µM] | / | -13% | / | ? | -1.7% | 10% | /
Cc1ccc(OCC(=O)Nc2ccccc2C(=O)OCc2cc(=O)n3ccsc3n2)cc1 | 26%[46.1 µM] | / | 9% | / | / | 0.4% | 16% | /
O=C1NC(=S)NC(=O)C1=Cc1cccc2cc3ccccc3cc12 | / | / | -4% | -10%&-47% | / | -0.3% | 10µM* | -6%
O=C(NCCN1CCOCC1)c1cc2ccccc2o1 | 10% | 14% | -10% | -9% | 14%[46.1 µM] | 6.4% | 14% | -2%
O=C(N/N=C/c1cccc2nccnc12)c1ccccc1O | / | -11% | / | -10% | / | / | 2% | -2%
O=C(NCc1ccccc1)c1cccnc1N1CCOCC1 | 18% | 0% | 1% | 4% | -6% | -1.7% | -10% | 11%
Cc1ccc(NC(=O)CNC(=O)Cn2cnc3sc(C)c(C)c3c2=O)cc1F | / | 2% | / | 7% | / | / | 1% | -5%
CCCCN1C(=O)C(NC(=O)CC(C)C)(C(F)(F)F)C2=C1CC(C)(C)CC2=O (stereo not given) | -4% | 11% | 2% | 16% | 1% | 1.0% | -13% | -3%
c1ccc2c(c1)c1cccc3ccc4cccc2c4c31 | / | 2% | 16µM* | / | / | 2.1% | -19% | -15%
O=C(CN1CCSC1=NCc1ccccc1)c1ccccc1 | 3% | -10% | -1% | -3% | ? | -1.5% | -13% | 14%
CC(/C=N/n1cnnc1)=C\c1ccccc1 | 5% | -5% | -9% | -52% | -6% | -5.9% | -13% | /
CCOC(=O)Cc1c(C)nc2c(-c3ccc(Cl)cc3)cnn2c1C | 23% | -8% | / | 0% | 9%[46.1 µM] | / | 15% | 0%
Cc1cnc([N+](=O)[O-])n1CCOC(=O)NC(=O)c1c(F)cccc1F | 1%[46.1 µM] | 6% | / | / | 2%[46.1 µM] | / | -2% | -3%
COc1ccccc1NC(=O)CSc1nnc2ccc(-c3ccccn3)nn12 | 25% | 22% | / | / | 10% | / | -9% | 4%
CCCn1c(C2CCCN2c2nc(-c3cccc(Br)c3)cs2)nc2ccccc21 (stereo not given) | / | -21% | / | 25% | / | / | 0% | 17%
CSc1nccc(-c2sc(SC)c(C#N)c2-c2ccccc2)n1 | / | 8% | / | 3% | / | / | ? | 0%
COc1ccccc1-n1c(SCC(=O)N2CCOCC2)nc2cccnc21 | 16% | 6% | / | 4% | 9%[46.1 µM] | / | 0% | 0%
Cc1cc(OCC(=O)NCCCN2CCOCC2)cc(C)c1Cl | 29% | 5% | / | 5% | 1% | / | -7% | /
S=C1NCCOCCOCCNC(=S)N2CCOCCOCCN1CCOCCOCC2 | 20% | 13% | / | / | -5%[46.1 µM] | / | -16% | -1%
C[C@@H](C(=O)Nc1ccc2ccccc2c1)[C@@H]1C[C@@]1(C)[C@@H](NC(=O)OCc1ccccc1)c1ccccc1 | / | 10% | ? | ? | / | 3.2% | 19% | -5%
COC(=O)c1ccc(NC(=S)Nc2ccc(O)cc2)cc1 | 1% | -1% | / | -4% | 7% | / | 23% | 0%
COc1ccc(OCC(=O)Nc2ccc3c(c2)nc(CCN2CCN(C)CC2)n3C)cc1 | -7%[46.1 µM] | -2% | / | -3% | 1%[46.1 µM] | / | -8% | 0%
O=C(c1cc(S(=O)(=O)N2CCC3(CC2)OCCO3)ccc1F)N1CCCCC1 | 0%[46.1 µM] | -4% | / | / | -14%[46.1 µM] | / | 16% | -3%
O=C(C[C@H]1C[C@H](C(=O)N2CCCCC2)[C@@]2(CCc3ccccc3)c3[nH]c4ccc(Cl)cc4c3CCN2C1=O)NCc1ccco1 | / | 1% | / | / | -2% | / | -26% | 11%
Cc1ccc(C(=O)Nc2nnc(S(=O)(=O)N(C)Cc3ccc(Cl)cc3)s2)cc1 | 10%[46.1 µM] | / | -6% | / | / | 6.2% | -3% | /
Cc1ccc(-c2n[nH]c(Cc3ccccc3)n2)cc1 | / | -29% | / | -21% | / | / | 2% | -6%
CC(=O)Nc1c(O)nc(SC/C=C/CSc2nc(O)c(NC(C)=O)c(=O)[nH]2)[nH]c1=O | 7% | 13% | / | / | -16%[46.1 µM] | / | -13% | 2%
COc1ccccc1C(=O)Oc1cc(C)[nH]c(=O)c1[N+](=O)[O-] | 6% | 0% | / | / | 3%[46.1 µM] | / | -11% | 0%
O=S(=O)(c1ccc2ccccc2c1)N1C=CC(C(F)(F)F)=NCC1 | -1% | 1% | 1% | 4% | -12%[46.1 µM] | -5.2% | 34%[activator] | 4%
COc1ccc(C2(C#N)CC[N+](C)(C)CC2)cc1 | -1% | -1% | -1% | 17% | 4% | 4.8% | 13% | 29%
O=C1/C(=C/c2ccc(F)cc2)SC(=S)N1NS(=O)(=O)c1ccccc1 | ? | 3% | / | -47% | ? | / | -4% | 1%
COc1ccccc1CCNC(=O)CNC(=O)Cc1cccc2ccccc12 | -22% | 21% | / | -4% | ? | / | -18% | -5%
Next section:
SMILES | LASV entry inh | RE007 growth inh | Cruzain inh noDet | NS1 inh | MARV entry inh | Cruzain inh Det | StopGo reporter | SARS PLpro yeast
Cc1nc2nc(SCC(=O)NCCc3ccc(Cl)cc3)nn2c(C)c1Cc1ccccc1Cl | 10%[46.1 µM] | / | ? | / | / | 1.3% | -19% | /
CN(C)c1ccc(/C=N/NC(=O)c2ccccc2Cl)cc1 | ? | -13% | -2% | -39% | ? | -6.3% | 38%[activator] | 0%
COc1ccc(N(CC(=O)Nc2ccc3c(c2)OCCO3)S(C)(=O)=O)c(OC)c1 | 5% | -19% | 17% | -7% | 2%&14% | 3.9% | -16% | 6%
CCCn1c(Sc2nc3c(c(=O)[nH]c(=O)n3C)n2CCC)nc2c1c(=O)[nH]c(=O)n2C | ? | 40% | 1% | 0% | 9% | 1.9% | 21% | 18%
O=C(O)CC1(CC(=O)NCc2ccc(F)cc2)CCCCC1 | / | 1% | / | 2% | / | / | 11% | 0%

High-throughput results from PubChem.
